# AID504770 = growth inhibition of E. coli YBA685, primary screen, V. cholerae RctB inhibitors. E. coli YBA685 rctB-dependent plasmid, OD600 growth, 3 h; hits give low values. z-score (no concentration beside the values). hit rate 0.27% among 130,000;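 active = z-score under -2 on both plates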;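 also: wells of about 30 µL received 100 nL stock; score is relative to mean and SD of the test wells; the first replicate is given; strong numbers were not always called active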
# CapD inh = Bacillus anthracis CapD inhibitors, primary screen, biochemical, fluorescence intensity; CapD gamma-glutamyltranspeptidase (Bacillus anthracis Ames Ancestor); purified CapD enzyme, fluorescence intensity read-out; hits give low values; some hits fall short of the stated cut; z-score (test concentration not listed); hit rate 0.23% among 140,000; AID 492967, 2010;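 active = z-score under -4 in either of two replicates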;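 also: stock transfer was 100 nL into about 40 µL; score is relative to mean and spread of the plate; one replicate is shown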
# * marks the source's active call; other numbers are inactive results; . = no result given. A portion of the library (hit frequency here may not be typical).
# Results follow in this order: AID504770 | CapD inh
COc1ccc(S(=O)(=O)NC(C)C(=O)NCC2CCCO2)cc1Cl (stereo not given)
    -1 | .
O=C1CC2(CCCC2)C(=O)N1c1ccc(Br)cc1
    0.95 | 0.305
C=CCOC(=O)C1=C(C)NC(=O)NC1c1cn(-c2ccccc2)nc1-c1cccs1 (stereo not given)
    . | 0.205
CS(=O)(=O)c1ccccc1C(=O)Nc1ccc(N2CCCCC2)cc1
    0.1 | .
O=c1c2cc(NC(=S)N3CCCC3)ccc2nc2n1CCCCC2
    . | -0.415
CC1=CC(C)C(C2OCC(C)CO2)C(C)C1 (stereo not given)
    -0.9 | -0.085
CCSC1=NN1c1cc(C)nc(N)n1
    -0.7 | -0.04
O=C(CCC1CCCCC1)OCCN1CCCC1=O
    1 | -0.78
O=C(OCc1ccccc1)C(Cc1c[nH]c2ccccc12)NS(=O)(=O)c1ccc(Cl)s1 (stereo not given)
    . | -0.385
Cc1[nH]n(C)c(=O)c1N=Nc1ccc(Br)cc1
    . | -0.42
CCOC(=O)CSCC(=O)N1c2ccccc2-c2c(ssc2=S)C1(C)C
    . | -0.845
Cc1nc(C(=O)NNC(=O)OCc2cccc(OCc3ccccc3)c2)cs1
    . | -0.36
CN(C)CCNC(=O)C12CC3(C)CC(C)(CC(C)(C3)C1)C2
    2.35 | -0.51
Cc1cc(N2CCN(c3ccccc3)CC2)n2nc(-c3ccccc3)cc2n1
    -0.4 | -0.05
COc1ccc(Cl)cc1C(=O)N/N=C/c1ccc(O)cc1Cl
    . | -0.02
O=C(NCc1cccnc1)N(c1ccccc1)c1ccccc1
    -0.7 | .
Cc1ccccc1NS(=O)(=O)c1ccc2c(c1)c(=O)n(C)c(=O)n2C
    -0.5 | 0.99
Cc1c(C(=O)/C=C/N(C)C)nnn1-c1ccccc1
    -0.75 | -5.5*
Cn1c2ccccc2c2cnn(CC(=O)N3CCCCC3)c(=O)c21
    0.55 | 10.7
CCOc1cc(C2C(C(=O)OCCOC)=C(C)NC3=C2C(=O)CC(c2ccc(OC)cc2)C3)ccc1O (stereo not given)
    . | 2.26
CCN(CC)c1ccc(/C=C2/SC(=O)N(CNc3ccccc3OC)C2=O)cc1
    . | -2.15
COc1ccc(N2CCN(C(=O)CSc3ccc(S(=O)(=O)N(C)C)cn3)CC2)cc1
    -0.35 | .
O=C(Nc1cccc(F)c1)N1CCN(Cc2ccccc2)CC1
    -0.35 | 0.97
Cc1ccc2c(c1)N(CC(=O)NC1CCCC(C)C1C)C(=O)c1cccnc1O2 (stereo not given)
    2 | -0.245
CS(=O)(=O)CCC(C(=O)N1CCCC1)N1Cc2ccccc2C1=O (stereo not given)
    -0.25 | -0.32
O=C(OCC1CCCN2CCCCC12)c1cc2ccccc2oc1=O (stereo not given)
    1.8 | 9.75
CCCCC1(O)C(=O)c2ccccc2N(c2ccccc2)C1=O (stereo not given)
    -0.8 | 2.57
O=C1CC2(CCN(C(=O)Nc3ccccc3)CC2)Oc2ccccc21
    1 | .
c1ccc(-c2nc(-c3cccnc3)cs2)cc1
    -0.35 | 1.84
COc1ccc(N2CCN(C(CNS(=O)(=O)c3ccc(Cl)cc3)c3cccnc3)CC2)cc1 (stereo not given)
    -0.4 | 0.145

# 3 records drawn at random from those above:
# Results follow in this order: AID504770 | CapD inh
CS(=O)(=O)CCC(C(=O)N1CCCC1)N1Cc2ccccc2C1=O (stereo not given)
    -0.25 | -0.32
Cc1ccc2c(c1)N(CC(=O)NC1CCCC(C)C1C)C(=O)c1cccnc1O2 (stereo not given)
    2 | -0.245
O=C(Nc1cccc(F)c1)N1CCN(Cc2ccccc2)CC1
    -0.35 | 0.97

# Other records follow:
# Results follow in this order: AID504770 | CapD inh
O=C(NCCCc1ccccc1)C1CCCN(S(=O)(=O)N2CCCCC2)C1 (stereo not given)
    2.2 | -1.04
CCN(CC)c1nc2ccccc2s1
    -0.45 | -0.26
N#CCc1ccc(NC(=O)COCC(=O)O)cc1
    0.85 | 1.04
Cc1nc(C(=O)NNc2ccc(F)cc2)c(C(F)(F)F)o1
    -0.2 | -1.14
COC(=O)c1oc2ccccc2c1O
    -0.45 | 12.1
O=C(O)CC(CNS(=O)(=O)c1cccc2nsnc12)c1ccccc1 (stereo not given)
    . | 0.435
O=C1CCCC2=C1C(c1ccc(OC(F)F)cc1)C1=C(CCCC1=O)N2
    0.05 | .
Cc1ccc2c(c1)c1nc3ccccc3nc1n2CC(=O)OCc1ccccc1
    0.1 | 6.36
COc1ccc(N2CCN(C(CNC(=O)Oc3ccccc3)c3cccnc3)CC2)cc1 (stereo not given)
    -0.1 | 0.42
c1ccc(COn2c(-c3ccccc3)nc3ncccc32)cc1
    -0.5 | 4.63
C=C(CO)C1Cc2c(ccc3c(=O)c4c(oc23)COc2cc(OC)c(OC)cc2-4)O1 (stereo not given)
    -0.6 | -0.14
CN(C)C=Nc1nonc1-c1ccc(Cl)cc1
    . | -1.16
CC(C)NC(=O)Nc1ccc2snnc2c1
    -0.9 | 25.9
Cc1ccc(Nc2nc(Oc3ccc(OCCOc4ccccc4)nn3)nc(N(C)C)n2)cc1
    1.75 | -1.45
COc1ccc(CCn2c3c(c(=S)[nH]c2=O)CCC3)cc1OC
    -0.75 | -2.78
O=C(CC(C(=O)O)N(Cc1ccccc1)Cc1ccccc1)c1ccc(Cl)cc1 (stereo not given)
    -2.85* | -0.06
N#CC(C#N)=C(N)C(C#N)Cc1ccc(Cl)cc1 (stereo not given)
    -0.5 | .
CC1=CC(C)(C)N(C(=O)CSc2nccn2C)c2cc(C)ccc21
    0.1 | -0.025
CSc1ccc(-c2nc(CSCC(=O)NC(C)C)c(C)o2)cc1
    0.45 | 8.36
COc1ccc(C=NCC2(c3ccccc3)CCCC2)c(OC)c1
    -0.4 | -0.075
CCN1CCN(C2=Nc3c(Cl)cc(Cl)c4cccc2c34)CC1
    -0.1 | .
O=C(NCc1cccc(C(F)(F)F)c1)C1CCN(c2ncc(-c3ccc(Cl)cc3)cn2)CC1
    . | -0.135
CC(C)c1ccc(NC2(C(N)=O)CCCCC2)cc1
    . | -0.84
O=C1N/C(=C/c2ccc(-c3ccccc3)o2)C(=O)N1Cc1ccc(Br)cc1
    0.6 | 1.69
CN(C)C(CNC(=O)c1ccc(Br)cc1)c1ccco1 (stereo not given)
    -0.5 | -0.42
O=C(C1CCN(S(=O)(=O)N2CCCCC2)CC1)N1CCCCC1
    -0.55 | 12.3
CN1CCC(N(C)C(=O)c2ccc(Cl)c(S(=O)(=O)N3CCc4ccccc43)c2)CC1
    1.15 | .
COc1ccc(S(=O)(=O)n2c(SCc3cccc(F)c3)nc3ccccc32)cc1
    . | -0.73
O=S(=O)(c1ccc(F)c(Cl)c1)N1CCN(Cc2ccc3c(c2)OCO3)CC1
    2.7 | -0.795
Nc1nc2nonc2nc1N
    . | 0.515
CNCc1ccc2ccccc2c1
    -1.05 | .
CCC/C=C/COC(=O)N1CCN(Cc2cc(OC)c(OC)cc2Br)CC1
    . | -0.05
CC(C)N(C(=O)c1cccs1)C(C)C
    -0.05 | .
Cc1cc(C)nc(NCC(C)c2ccccc2)n1 (stereo not given)
    -1.35 | .
CCCN1C(=O)c2ccc(-c3nc4cc(Cl)ccc4c(=O)o3)cc2C1=O
    -0.2 | 0.62
COc1ccc(C2C(C#N)=C(N)OC3=C2C(=O)CCC3)cc1 (stereo not given)
    -0.15 | .
CC(=O)Nc1ccc2nc(NC(=O)c3cc4ccccc4o3)sc2c1
    2.25 | .
CC1CN(C(=O)COC(=O)c2n[nH]c3ccccc23)CC(C)O1 (stereo not given)
    0.35 | .
O=C(CC1Oc2ccccc2NC1=O)NCCc1ccccc1 (stereo not given)
    -0.45 | -0.525
CC(=O)Nc1c(C(=O)N2CCN(C)CC2)oc2ccccc12
    0.45 | -1.22
Cn1cccc1C(=O)OCC(=O)c1cc2ccccc2o1
    -1.25 | .
CN1/C(=C\C(=O)CSc2nnc(-c3ccccc3)o2)C(C)(C)c2ccccc21
    -0.2 | .
COC(=O)c1ccc(C2Oc3ccc(Cl)cc3C3CC(c4cccs4)=NN32)cc1 (stereo not given)
    . | -1.05
NS(=O)(=O)c1cc([N+](=O)[O-])c(N2CCN(S(=O)(=O)c3cc(Cl)sc3Cl)CC2)s1
    . | 0.12
COC(CNC(=O)c1ccc2c(c1)ncn2-c1ccc(OCc2ccccc2)cc1)OC
    . | 1.58
COc1ccc(C2=N/C(=C\C(Br)=C\c3ccccc3)C(=O)O2)cc1OC
    . | 0.18
Cc1cc(C(=O)N2CCCCCC2)cs1
    -0.65 | -0.09
COc1ccc(NC(=O)C2CC2)cc1OC1CCCC1
    -0.85 | 0.635
O=C(c1cccs1)N1CCN(C/C=C/c2ccccc2)CC1
    -0.15 | .
CC1=C(C(=O)C(F)(F)F)CCC(=O)N1CCCN1CCCC1=O
    -0.85 | .
CCCC(=O)N1CCN(c2ccc(NC(=O)c3cccc(C)c3OC)cc2Cl)CC1
    -0.65 | -0.78
Cc1noc(C)c1CN1C(=O)NC2(CCCc3sccc32)C1=O (stereo not given)
    -1.45 | .
COc1cc(/C=c2\sc3nc(=O)c(C)nn3c2=O)ccc1OCCC(C)C
    . | -0.525
NC(=O)C1COc2ccccc2O1 (stereo not given)
    -0.8 | .
Cc1csc(SC(C)C(=O)NC(C)C)n1 (stereo not given)
    -0.6 | .
CC1CC2(C)CC(C(=O)O2)C1C(=O)O (stereo not given)
    -0.3 | -0.035
Cc1nnc(N2CCCC(C(=O)NCc3ccco3)C2)c2nn(-c3ccccc3)c(C)c12 (stereo not given)
    -0.95 | 7.73
Cc1ccc(S(=O)(=O)n2c(=O)oc3ccccc32)cc1
    -0.4 | -0.51
CC(=O)OCC(=O)[C@@]1(O)[C@H](C)C[C@H]2[C@@H]3CCC4=CC(=O)C=C[C@]4(C)[C@@]3(F)[C@@H](O)C[C@@]21C
    . | -0.245
COc1ccccc1CN1C(=O)C(=O)N(CC(=O)c2ccc(F)cc2)C1=O
    . | -0.435

# Remaining list, next part:
# Results follow in this order: AID504770 | CapD inh
Oc1c(N=Nc2cc(Cl)cc(Cl)c2)c2ccccc2n1-c1ccccc1
    . | 0.27
CN(C)c1ccc(/C=C2\CCCC(=C3SCCS3)C2=O)cc1
    -0.3 | -1.82
CCN1CCN(C(=S)c2ccc(OCC(N)=O)c(OC)c2)CC1
    0.6 | -0.695
COc1ccccc1/C=C(\C#N)C(N)=C(C#N)C#N
    -0.2 | .
Cn1cnnc1SCC(=O)N1c2ccccc2Sc2ccc(Cl)cc21
    1.3 | 0.785
N/C(=N\OC(=O)c1ccc2nsnc2c1)c1nonc1N
    -0.35 | -0.115
Cc1ccc2nc(-c3ccc(NC(=O)c4cccc(Cl)c4)cc3)sc2c1
    . | 2.33
N=c1c2c3c(sc2ncn1Cc1ccccc1)CCCCC3
    0.55 | 0.06
COc1ccc2c(O)c(Cc3ccccc3)c(=O)[nH]c2c1
    . | 5.81
COc1ccc(COCC(O)CS(=O)(=O)c2ccc(OC)c(OC)c2)cc1 (stereo not given)
    -0.2 | 0.62
Cc1cccc(S(=O)(=O)C(C#N)c2nc3ccccc3nc2N2CCCC2)c1 (stereo not given)
    1.65 | .
O=C(NC1CCCCCC1)C1c2ccccc2C(=O)N1Cc1cccnc1 (stereo not given)
    -0.2 | 0.01
CCOC(=O)c1ccc(NC(=O)CSc2nc3ccccc3c(=O)n2NC(=O)CCc2c[nH]c3ccccc23)cc1
    . | -0.12
O=C(/C=C/Nc1ccc(S(=O)(=O)N2CCCCC2)cc1)C(F)(F)F
    -0.3 | .
CC(C)Oc1ccccc1CN
    1 | .
COc1ccc(C(=O)Nc2ccccc2C(=O)NC(C(=O)NCc2ccco2)C(C)C)cc1 (stereo not given)
    0 | .
COC(=O)CC(=O)CSc1cc(C)c(C#N)c2nc3ccccc3n12
    0 | .
COc1ccc(OC)c(C2C3=C(COC3=O)Nc3[nH]c(=O)[nH]c(=O)c32)c1 (stereo not given)
    0 | .
O=C(/C=C/c1cccc(C(F)(F)F)c1)N1CCN(c2ccccc2F)CC1
    0.8 | .
CC(C)OC(=O)C1C(=O)NC23CCCCC2C1c1ccccc1O3 (stereo not given)
    1.6 | 0.41
O=C1CC2(CCCC2)C(=O)N1C1CCN(c2nccc(C(F)(F)F)n2)CC1
    -0.35 | 0.22
COc1ccccc1NC(=O)C1=C(C)NC2=C(C(=O)CCC2)C1c1cc(OC)c(OC)c(OC)c1 (stereo not given)
    . | 11.4
O=C(CC12CC3CC(CC(C3)C1)C2)N1CCCCC1
    -0.25 | 0.455
O=C(Nc1ccc(Br)cc1)C1CC1
    -0.3 | 0.55
C=CCN(Cc1nc(-c2ccc(Cl)cc2)no1)C(=O)C(C)(C)C
    0.4 | .
O=[N+]([O-])c1cccc(-c2csc(-c3ccncc3)n2)c1
    . | 0.065
c1ccc(-c2cc3cnsc3o2)cc1
    0.75 | -0.24
CCn1nccc1NC(=O)Cc1ccc(Cl)cc1
    -0.3 | -0.275
CCC(=O)Nc1ccc2c(c1)OCCO2
    . | 2.33
O=C(Cc1cccc(C(F)(F)F)c1)OCC(=O)N1CCCCCC1
    -0.25 | -0.77
O=C(NC1CC(O)c2sccc21)C(F)(F)F (stereo not given)
    -1.1 | -0.565

# Profiles, looked up by structure.
# Listed for CC(C)OC(=O)C1C(=O)NC23CCCCC2C1c1ccccc1O3 (stereo not given) : AID504770 = 1.6; CapD inh = 0.41
# Listed for Cc1csc(SC(C)C(=O)NC(C)C)n1 (stereo not given) : AID504770 = -0.6; CapD inh = .
# Listed for Cc1nc(C(=O)NNc2ccc(F)cc2)c(C(F)(F)F)o1 : AID504770 = -0.2; CapD inh = -1.14

# Bioassay records (PubChem)
